Compound activity: PubChem, National Center for Advancing Translational Sciences (NCATS)
Vaccinia Venus – vaccinia inhibition (Venus reporter) | Vaccinia virus Venus reporter expression, fluorescence | Potency, µM (top dose mostly 36.5 µM), without a hit: at the top dose activity change, negative = inhibition, hits mostly inhibitors | 330,000 compounds, 0.46% hits; active means well fitted inhibition curve with a large enough effect; inconclusive means small, poorly fitted or top-dose-only effect; inactive means no such curve, though single readings can be large or run the other way; tested in A549 cells; also: nearly all actives have a fitted effect of over 30% in size; inactives centre near -10
Vaccinia mCherry – inhibitors of vaccinia virus infection (mCherry reporter signal) | Vaccinia virus mCherry reporter infection, fluorescence; about a quarter of the inactives have no number | Potency, µM (titrated, usually from 36.5 µM), for the others: at the highest dose activity change, negative = inhibition, most hits filed as inhibitors | 310,000 compounds, 0.63% hits; active = well fitted inhibition curve with a large enough effect; inconclusive = small, poorly fitted or top-dose-only effect; inactive = no such curve, though single readings can be large or run the other way; tested in A549 cells; also: nearly all actives have a fitted effect of over 35% in size; inactives centre near -10
The depositor's hits bear a star; i = inactive; ? = inconclusive; . = no result given; [ ] = remark or other dose. % is scaled to controls: 0 for no effect and ±100 for the full control effect; potency is read from the fitted curve at half-maximal effect.

structure | Vaccinia Venus | Vaccinia mCherry
CCC(=O)Nc1ccc2c(c1)nc1n2CCN(C2CCCCC2)C1 | -1% | -13%
CCOC(=O)CCCN1C(=O)CCn2nc(-c3cn(C)c4ccccc34)cc21 | -13% | -12%
CN(C(=O)c1cn2ccccc2n1)c1c(N)n(Cc2ccccc2)c(=O)[nH]c1=O | -7% | i
CCCCc1ccc(-n2nnnc2SCC(=O)Nc2cc(OC)c([N+](=O)[O-])cc2C)cc1 | -11% | -10%
O=C(OCc1cc(=O)n2cc(Br)ccc2n1)c1ccc(Cl)c(S(=O)(=O)NCc2ccccc2)c1 | -13% | i
O=[N+]([O-])c1ccc(Cl)c(S(=O)(=O)NC2=NCCC2)c1 | -6% | ?
Cc1cc(C)n2cc(CSc3nnnn3-c3ccccc3C)nc2n1 | -10% | -8%
Nc1ccc(Cc2nc3cc4ccccc4cc3[nH]2)cc1 | 14% | 5.6µM*
Nc1cc2c(cc1Br)-c1ccc(F)cc1C2=O | -3% | -25%
COc1ccc(OC)c(NC(=S)NCc2ccc(S(N)(=O)=O)cc2)c1 | -17% | i
COc1ccc(N2CCN(C(CNS(=O)(=O)c3cc(F)ccc3F)c3cccnc3)CC2)cc1 (stereo not given) | -7% | -29%
O=CNc1cc(-c2ccc(C(=O)NC3CC3)cc2)cn2c(-c3ccc(F)cc3)cnc12 | ? | -26%
Nc1nc(-c2ccccc2)c(CCCOc2ccc([N+](=O)[O-])cc2)c(=O)[nH]1 | -10% | -16%
COc1ccc(-c2csc(NC(=O)CSCc3c(C)noc3C)n2)cc1OC | -16% | -3%
O=C(CSc1nnc(SCc2ccccc2)s1)N/N=C/c1c[nH]c2ccccc12 | -10% | -7%
O=C(Cc1ccsc1)Nc1cc(F)ccc1F | -14% | -4%
O=C(c1ccccc1Cl)N1CCN(c2ccccn2)CC1 | -1% | -3%
COc1ccc(NC(=O)c2ccc3c(=O)n4nc(Nc5ccccc5C)sc4nc3c2)cc1 | -30% | -18%
CSCCC(NS(=O)(=O)c1ccccc1)C(=O)OCc1cc(=O)oc2cc(O)ccc12 (stereo not given) | -9% | -17%
CC1=NN(C(N)=S)C(=O)C1N=Nc1ccc(O)cc1 (stereo not given) | -28% | ?
COc1ccc2oc(=O)cc(-c3cc4cccc(OC)c4o3)c2c1 | -7% | i
CCC1(CC)C(=O)C(C)(C)C(=O)OC1c1cccs1 (stereo not given) | -16% | .
CCn1c(SCC(=O)NCCOc2ccccc2)nc2ccccc2c1=O | -17% | .
N#C/C(=C(/O)CN1C(=O)c2ccccc2C1=O)c1nc2ccccc2[nH]1 | -15% | .

The last 5 records of the part before lead into the next.
structure | Vaccinia Venus | Vaccinia mCherry
CC1=NN(C(N)=S)C(=O)C1N=Nc1ccc(O)cc1 (stereo not given) | -28% | ?
COc1ccc2oc(=O)cc(-c3cc4cccc(OC)c4o3)c2c1 | -7% | i
CCC1(CC)C(=O)C(C)(C)C(=O)OC1c1cccs1 (stereo not given) | -16% | .
CCn1c(SCC(=O)NCCOc2ccccc2)nc2ccccc2c1=O | -17% | .
N#C/C(=C(/O)CN1C(=O)c2ccccc2C1=O)c1nc2ccccc2[nH]1 | -15% | .
COc1ccc(CCNC(=O)c2coc3ccccc3c2=O)cc1 | -14% | 26%
COc1ccc(CCNc2ncnc3nc[nH]c23)cc1OC | -23% | ?
CCOC(=O)c1cc(NC(=O)/C=C\C(=O)O)ccc1Cl | -9% | -10%
CCOC(=O)Cc1csc(/N=C/c2c(O)n(-c3ccc(C)c(C)c3)c(=O)c3ccccc23)n1 | -12% | -18%
Cc1ccnc2nc(C(=O)OCC(=O)NCCc3ccccc3)nn12 | -6% | i
COc1ccc(CNC(=O)c2cccc(NC(=O)N3CCSc4ncccc43)c2)cc1 | -12% | -10%
C=CCn1c(O)c(C(C)=NCc2cc(OC)cc(OC)c2)c(=O)[nH]c1=O | 5µM* | 8.9µM*
Cc1cc(NS(=O)(=O)c2ccc(NC(=O)CSc3nnc(-c4ccco4)n3C)cc2)nc(C)n1 | -6% | i
COc1nc(C#N)nc(N2CCCCC2)n1 | -3% | 4%
N#CCc1nc(CSc2nc3ccccc3o2)cs1 | -1% | -6%
CCCOc1c(Br)cc(C(=O)OCC(=O)NC(=O)c2cccn2C)cc1OC | -5% | i
O=C(CCc1c[nH]c2ccccc12)NCC1COc2ccccc2O1 (stereo not given) | -11% | -23%
CCOc1ccc(-c2nnn(CCC#N)n2)cc1OC | -11% | -3%
O=C(CO/N=C/c1ccccc1OC(F)F)NC1CCCC1 | -7% | -6%
COc1cc(NC(=O)c2cc([N+](=O)[O-])ccc2NC(=O)CNC2CCCCC2C)cc(OC)c1 (stereo not given) | -12% | -23%
O=C(CNC(=S)NC(=O)c1cccs1)c1ccccc1 | -8% | -14%
Cc1nc(C(F)(F)F)ccc1C(=O)N1CCC(C)(C(=O)NS(=O)(=O)C2CC2)C1 (stereo not given) | 9% | 10%
CC(C)CN(CC(C)C)S(=O)(=O)N1CCC(C(=O)NCCN2CCOCC2)CC1 | 0% | -11%
Cc1cc(Br)ccc1NC(=O)COC(=O)c1ccccc1OCC(=O)N(C)C | -3% | 3%
O=C(CN1CCN(c2ccccc2F)CC1)c1ccc2cc[nH]c2c1 | -15% | ?
CC(=O)c1cccc(NC(=O)c2nc(-c3ccccc3)n(-c3cccc(C)c3)n2)c1 | -8% | -7%
O=C1N2c3ccccc3CCc3cccc(c32)C1(O)C(F)(F)F (stereo not given) | -27% | -26%
COc1cccc(-n2nnc3c(sc4nc(C)cc(C)c43)c2=O)c1 | -27% | ?
C/C=C/Cn1c(N(C)Cc2ccccc2)nc2c1c(=O)[nH]c(=O)n2C | -24% | i
C=C1C(=O)OC2C1CCC(C)=C1C(=O)C3OC3(C)C12 (stereo not given) | ? | 11µM*
Cc1cccc(CNc2cc(-c3ccccc3CN(C)C)ncn2)c1 | 9% | 1%
COc1ccc(OCC(=O)Nc2c3c(nn2C(C)(C)C)CS(=O)(=O)C3)cc1 | -16% | -17%
Cc1c(Nc2nc(-c3ccc(Cl)cc3)cs2)c(=O)n(-c2ccccc2)n1C | -24% | ?
CN(Cc1ccccc1)C(=O)COC(=O)Cn1cnc2ccccc21 | -8% | i
O=C(NCc1ccccc1)C(c1ccc(C(F)(F)F)cc1)N1CCN(CCN2CCOCC2)CC1 (stereo not given) | -27% | -15%
COc1ccc(C(C(=O)NC2CCCCC2)N(CC2CCCO2)C(=O)CCCC(=O)Nc2ccccn2)cc1 (stereo not given) | -6% | -3%
CCOCCn1ccc2c(OCC(=O)NCCc3ccc(OC)c(OC)c3)cccc2c1=O | -4% | i
CCc1nc2nc(C)cc(Nc3cc(Cl)ccc3C)n2n1 | -7% | -22%
CSc1ccccc1C(=O)C1CCCN(C(=O)c2cc(C(C)C)no2)C1 (stereo not given) | -8% | i
O=C(NCCN1CCC(n2c(=O)[nH]c3ccccc32)CC1)c1cccs1 | -10% | -4%
COc1cccc(C(=O)COc2cccc(NC(=O)c3ccco3)c2)c1 | -22% | -2%
O=C(CCNC(=O)c1ccccc1Cl)Nc1cc(C(F)(F)F)ccc1Cl | -20% | -5%
CCSCCNC(=O)c1cncc(Br)c1 | -3% | -9%
O=C(O)CN1C(=O)SC(Nc2ccc(Cl)cc2)C1=O (stereo not given) | -18% | -13%[1.46 µM]
Cc1cc(OCC(=O)NNC(=O)CCc2ccccc2)ccc1Br | 4% | -2%

Of the compounds above, these have a furan ring, fused or not.
structure | Vaccinia Venus | Vaccinia mCherry
COc1ccc2oc(=O)cc(-c3cc4cccc(OC)c4o3)c2c1 | -7% | i
Cc1cc(NS(=O)(=O)c2ccc(NC(=O)CSc3nnc(-c4ccco4)n3C)cc2)nc(C)n1 | -6% | i
COc1cccc(C(=O)COc2cccc(NC(=O)c3ccco3)c2)c1 | -22% | -2%

(cont.)
Results follow in this order: Vaccinia Venus | Vaccinia mCherry
Cc1ccc(OCC(=O)Nc2cc(S(=O)(=O)N3CCCCC3)ccc2C)c([N+](=O)[O-])n1
→ -4% | -6%
CCCNC(=O)C1(C)CCN(C(=O)c2cc(C)n(C(C)(C)C)n2)C1 (stereo not given)
→ -5% | 13%
Cc1nn(-c2ccccc2)c(-n2cccc2)c1C(=O)NCCCN1CCN(c2ccccc2F)CC1
→ -17% | -18%
COc1ccc(OC)c(-c2c(C#N)c(N)nc3c2c(=O)nc2sccn23)c1
→ -15% | -1%
Cc1cccc(NCc2ccccc2OCc2ccccc2F)c1
→ -11% | -1%
COCCNC(=O)c1cc(-c2ccc(Cl)c(Cl)c2)on1
→ 11% | 44%[activator]
CC(=NNC(=O)c1ccncc1)c1cccc(Br)c1
→ 9% | -1%
C=CCNc1nc(C)c(C(C)=O)cc1C#N
→ -8% | -16%
CCN1CCc2c(C#N)c(N3CCOCC3)nc(N3CCOCC3)c2C1
→ 5% | .
O=C(OCc1cn([C@H]2C[C@H](c3ccccc3)N(CC3CCCCC3)C[C@@H]2O)nn1)c1ccccc1
→ -15% | ?
CCOc1ccc2[nH]c3ncccc3c(=O)c2c1
→ -28% | -1%
O=C(NCc1nnc2c3ccccc3c(-c3ccccc3)nn12)c1ccccc1Cl
→ 3% | i
CCOC(=O)CCC(NC(=O)CCCCCCCCC(=O)NC(CCC(=O)OCC)C(=O)OCC)C(=O)OCC (stereo not given)
→ -16% | -11%
CC(C)c1nccn1S(=O)(=O)c1cc(Cl)ccc1Cl
→ -18% | .
CC(=O)N(Cc1ccccc1)C1CC(=O)N(Cc2ccccc2)C1=O (stereo not given)
→ -6% | i
CCCOc1ccc(NC(N)=O)cc1OCCC
→ -8% | -16%
COC(=O)C1=C(c2ccc(F)cc2OCc2ccccc2)C[C@@H]2CC[C@H]1N2C(=O)NCc1ccc([N+](=O)[O-])cc1
→ ? | -20%
COCCNc1nc2cc(-c3cccc(C(F)(F)F)c3)sc2c(=O)n1C
→ -3% | -5%
COc1ccc(O)c(/C=N\NC(=O)CCn2nnc3ccccc32)c1
→ ? | ?
O=C(NC1CCCCCC1)C(=S)NCCc1ccccc1
→ -12% | -3%
Oc1ccc(-c2[nH]ncc2-c2cnn(-c3ccccc3)c2)c(O)c1
→ 0% | i
COc1cc2nc(NC(=O)c3ccc(S(=O)(=O)N4CCOCC4)cc3)sc2cc1OC
→ 0% | -6%
O=C(CN1CCN(c2ccc(F)cc2)CC1)Nc1ccc(-n2cnnn2)cc1
→ -9% | -22%
O=C(c1cccc(NS(=O)(=O)c2ccc(F)c(F)c2)c1)N1CCN(C(c2ccccc2)c2ccccc2)CC1
→ ? | -27%
COc1ccc(-c2noc(CSc3nc4ccccc4c(=O)n3-c3ccccc3)n2)cc1OC
→ -2% | -6%
COc1cccc(/C=N\n2c(C)nnc2C)c1OC
→ 2% | -18%
O=C(CN1C(=O)C2C3C=CC(C3)C2C1=O)Nc1nncs1 (stereo not given)
→ 0% | i
O=C(Nc1ccccc1)NC(Cc1ccc(O)cc1)C(=O)O (stereo not given)
→ -13% | -10%
CCCC(=O)N1CCCC1(C)C(=O)N(C)Cc1cccc2ccccc12 (stereo not given)
→ -24% | -14%
O=C(COC(=O)/C=C/c1ccc(OC(F)F)cc1)NC1CCCCCCC1
→ -5% | -12%
CC1(C)Cc2c(c(-c3ccco3)nc3sc4c(NCCN5CCOCC5)ncnc4c23)CO1
→ -21% | -6%
O=C(CCC(=O)NNC(=O)Nc1cccc(Cl)c1)NCc1ccccc1
→ -3% | -3%
CCC1(c2ccc(Cl)cc2)NC(=S)N(c2ccc(C)cc2)N1 (stereo not given)
→ -21% | ?
O=C(NCCCN1CCOCC1)c1onc(CSc2ccc(F)c(F)c2)c1C(=O)NCCCN1CCOCC1
→ -10% | -11%
Cc1ccnc(NC(=O)CCC(=O)N(CC(=O)NCC2CCCO2)Cc2ccc(F)cc2)c1 (stereo not given)
→ -6% | .
Cc1c(NCc2ccncc2)cccc1C(=O)O
→ -8% | i
Cc1ccc(Nc2ncc3c(=O)[nH][nH]c(=O)c3n2)cc1
→ 0% | 0%
COCCNC(=O)c1cc2sc3ccccc3c2s1
→ -20% | -26%
CC(=O)c1ccc(NS(=O)(=O)c2cc3c(cc2C)N(C(C)=O)CCO3)cc1
→ -15% | i
Cc1c(NC(=O)CN2CCN(c3ccccc3)CC2)c(=O)n(-c2ccccc2)n1C
→ -4% | .
O=C(Nc1ccc2sccc2c1)c1ccc(Cl)s1
→ -7% | i
COc1ccc(Br)cc1/C=N/NC(=O)c1cccc(S(=O)(=O)N2CCOCC2)c1
→ -8% | -4%
O=C(c1ccco1)N1CCCC(c2nc3c(nnn3Cc3ccc(Cl)cc3Cl)c(=O)[nH]2)C1 (stereo not given)
→ -11% | -14%
CCCCC1Cc2[nH]c(=S)[nH]c(=O)c2C(c2ccc(F)cc2)O1 (stereo not given)
→ -4% | 1%
O=C(Nc1ccc(OC(F)F)cc1)c1cc(S(=O)(=O)N2CCOCC2)ccc1N1CCCC1
→ -21% | -3%
CN(C)C(=S)Nc1ccc(Br)cc1Cl
→ 4% | -11%
O=C(CN(C(=O)CCC(=O)Nc1ccccn1)c1ccc(F)cc1)NCc1ccco1
→ 8% | -7%
CCCCn1nc(NC(=O)c2cccc(Cl)c2)c2cc3cccc(C)c3nc21
→ -17% | i
CCC(C)C(=O)Nc1cc(Cl)ccc1C(=O)O (stereo not given)
→ -4% | -12%
CCc1cc2ccccc2nc1SCC(=O)Nc1cc(OC)c(OC)cc1C(=O)O
→ -17% | -9%
